# Assay outcomes from PubChem BioAssay.
# H5N1 CPE = MDCK cell protection from H5N1 avian flu; cytopathic effect, luminescence, 72 h; stronger effect = higher value; no value below 0 was filed and about half of the inactive calls have no number; reference of the scale not given here; inhibition, % at 50 µM; hit rate 0.07% among 96,000; AID 740; in the data active = inhibition above about 25%
# Numbers without * were called inactive; i = inactive. Only part of the results is shown, so the mix of outcomes need not match the whole.
SMILES | H5N1 CPE
CCCS(=O)(=O)N1CCCC(C(=O)NCCCN2CCN(c3ccc(F)cc3)CC2)C1 (stereo unspecified) | i
O=C(Cc1csc(N2CCOCC2)n1)N/N=C/c1ccc(F)cc1 | 0.2
CCOC(=O)COc1ccc(S(=O)(=O)NCc2ccncc2)cc1 | 1.0
Cc1cccc(NCN2C(=O)c3ccccc3C2=O)c1 | i
Cc1nc(NC(=O)CN(C)S(=O)(=O)c2ccc(Cl)cc2)sc1C | i
COc1ccccc1C(=O)N1CCN=C1SCc1cccnc1 | 2.5
O=C(c1cnc2n(c1=O)CCS2)N1CCN(c2ccccc2F)CC1 | 1.6
CCNc1nc(C)c2cc(Br)c(=O)n(CC)c2n1 | i
CSc1nc(NCC(C)C)c2c3c(sc2n1)CN(C)CC3 | i
COc1nc(-c2ccccc2)c2c(c1C#N)CC(C)(C)OC2 | 0.4
CCOC(=O)C1CCN(C(=O)Cn2cc(C#N)c3ccccc32)CC1 | 0.1
N#Cc1nc(COc2ccc(Br)cc2)oc1N1CCCC1 | 0.4
Cc1ccc(N(CC(=O)NCCc2ccccc2)S(=O)(=O)c2c(C)noc2C)cc1 | 0.3
O=c1c2ccccc2nnn1CSc1nnnn1-c1ccccc1 | 0.8
Cc1sc2nc(SCC(=O)Nc3c(C)n(C)n(-c4ccccc4)c3=O)n(C)c(=O)c2c1C | 3.1
CCN(CC)S(=O)(=O)c1ccc(NC(=O)Cn2c(=O)oc3ccccc32)cc1 | 0.9
NC(=O)C1CCN(C(=O)CN2CCc3ccccc32)CC1 | i
CCOC(=O)C1CCN(C(C(=O)Nc2ccc3c(c2)OCCO3)c2ccccc2)CC1 (stereo unspecified) | 0.1
O=C1CC(N2CCOCC2)C(=O)N1c1cccc(Cl)c1 (stereo unspecified) | i
Cc1nn(CCc2nc(-c3ccco3)cs2)c2[nH]c(=O)cc(C(F)(F)F)c12 | i
CN1CCc2ccccc2C1C1CCNCC1 (stereo unspecified) | 0.1
Cc1ccc(NCCC(=O)c2cccc([N+](=O)[O-])c2)cc1 | i
COc1ccc(OC)c(NC=C2C(=O)OC(C)(C)OC2=O)c1 | 1.4
C=CCOc1ccc2c(c1)c(S(=O)(=O)c1ccc(C)cc1)cn2COC | 1.4
CC1C=CCC2C(=O)N(c3cccc(C(=O)N4CCN(c5ccc(F)cc5)CC4)c3)C(=O)C12 (stereo unspecified) | 0.7

# Gathered by group: the entries above containing a thiophene ring, fused or not (2)
SMILES | H5N1 CPE
CSc1nc(NCC(C)C)c2c3c(sc2n1)CN(C)CC3 | i
Cc1sc2nc(SCC(=O)Nc3c(C)n(C)n(-c4ccccc4)c3=O)n(C)c(=O)c2c1C | 3.1

# Additional compounds.
SMILES | H5N1 CPE
Cc1ccc(C)c(S(=O)(=O)C(C#N)c2nc3ccccc3nc2N2CC(C)OC(C)C2)c1 (stereo unspecified) | i
Cc1ccc(C(C)C)c(OCCn2c(=O)oc3ccccc32)c1 | 3.0
CC1CCN(S(=O)(=O)N2CCC(C(=O)NCCN3CCOCC3)CC2)CC1 | i
COc1cccc(C2C(C(=O)OC(C)C)=C(C)Nc3ncnn32)c1 (stereo unspecified) | 0.7
CCCCC(C(=O)O)C(C)CC(=O)Nc1ccn(-c2ccccc2)n1 (stereo unspecified) | 0.1
O=c1c2c3c(sc2n(CCN2CCCCC2)c(=O)n1Cc1ccco1)CCCCC3 | i
Cc1ccc(-c2nc3ccccc3c(C(=O)NCc3cccs3)c2C)cc1 | i
CCCc1cc(C(=O)N/N=C/c2ccc(CC)s2)c2ccccc2n1 | i
O=C(CS(=O)c1ccc(C(F)(F)F)cc1[N+](=O)[O-])Oc1ccccc1 (stereo unspecified) | i
CCCC(c1nnnn1C(C)(C)CC)N(CCCO)Cc1cc2cc(C)cc(C)c2[nH]c1=O (stereo unspecified) | 2.7
COc1ccc(OC)c(C(C)NC(C)=O)c1 (stereo unspecified) | 1.0
CN(C)CCCCOc1ccccc1-c1ccccc1 | i
Cc1cc(=O)oc2c(N)c(O)ccc12 | 1.9
O=C(NCc1ccccc1)c1ccc(S(=O)(=O)N2CCCC2)cc1 | 0.2
COC(=O)Cn1c(C)nc2ccccc21 | 0.1
CC(C)(C)C(=O)NC(C(N)=O)=C(Cl)Cl | 1.0
CN1C(=O)/C(=C2\SC(N3CCCCCC3)=NC2=O)c2ccccc21 | i
CSc1nc(Oc2ccc(F)cc2)c2ccccc2n1 | i
COc1ccc(S(=O)(=O)N2CCCC2C(=O)Nc2nccs2)cc1 (stereo unspecified) | 2.2
CC(C)OCCCn1c(=N)c(C(N)=S)cc2c(=O)n3ccccc3nc21 | 1.6
CCCCNC(=O)CSc1nnc(-c2c[nH]c3ccccc23)n1CC1CCCO1 (stereo unspecified) | 0.7
Cc1cc(=O)n2nc(N3CCCC(C(=O)NC(C)c4ccccc4)C3)sc2n1 (stereo unspecified) | 0.2
COc1cccc(-n2c(C)nc3c(cnn3-c3ccc(Cl)cc3)c2=O)c1 | 1.5
CCN(CC)S(=O)(=O)c1ccc2oc(C(=O)N3CCCCCC3)c(C)c2c1 | 14
CCC(=O)Nc1ccc(Cl)c(NC(=O)c2cccnc2)c1 | 1.4

# 4 entries out of the list, sorted by formula weight, descending:
SMILES | H5N1 CPE
CC1C=CCC2C(=O)N(c3cccc(C(=O)N4CCN(c5ccc(F)cc5)CC4)c3)C(=O)C12 (stereo unspecified) | 0.7
CCCc1cc(C(=O)N/N=C/c2ccc(CC)s2)c2ccccc2n1 | i
CCOC(=O)COc1ccc(S(=O)(=O)NCc2ccncc2)cc1 | 1.0
CCNc1nc(C)c2cc(Br)c(=O)n(CC)c2n1 | i

# (more compounds)
SMILES | H5N1 CPE
O=C(Nc1ccc(CN2CCOCC2)cc1)c1ccc(-c2ccc(Br)cc2)o1 | i
CCCc1cc(=O)[nH]c(SCc2ccccc2)n1 | i
COc1cccc(NC(=S)NNC(=O)c2ccccc2OC(F)F)c1 | i
COc1ccc(Cc2n[nH]c(=O)c3ccccc23)cc1OC | 2.4
CCOC(=O)c1c(C)oc2c1cc(O)c1ccccc12 | 0.2
CCC(C)NC(=O)C(=O)NCc1ccncc1 (stereo unspecified) | 0.3
O=C(OCCCc1ccncc1)c1ccc(S(=O)(=O)N2CCOCC2)cc1 | 5.5
CN(C)CCNC(=O)C1CC(=O)N(c2ccc(F)c(Cl)c2)C1 (stereo unspecified) | i
Cc1ccc2nc(Nc3nc(-c4ccccc4)cc(=O)[nH]3)nc(C)c2c1 | i
COc1ccc(Sc2cnn(-c3ccccc3)c(=O)c2Cl)cc1 | 0.6
COc1ccc(OCc2nn3c(-c4ccccn4)nnc3s2)cc1 | i
CCOC(=O)C1=C(N)OC2=C(C(=O)CCC2)C1c1cccs1 (stereo unspecified) | i
CCCOC(=O)CSc1nc(N)c(C#N)c(CC)c1C#N | i
COc1ccc(-n2nnnc2-c2cnc3cc4c(cc3c2C)OCO4)cc1 | 3.1
CC(C)CCNC(=O)Cc1ccccc1[N+](=O)[O-] | 0.1
Cc1ccc(N(C(=O)Cc2c[nH]c3ccccc23)C(C(=O)NC2CCCCC2)c2ccco2)cc1 (stereo unspecified) | 2.2
CCOc1ccc(C2C(C(=O)O)c3ccccc3C(=O)N2CCN2CCOCC2)cc1 (stereo unspecified) | 0.3
CC(=O)NC(Cc1ccc(F)cc1)C(=O)NC1CCN(c2nnnn2-c2ccccc2)CC1 (stereo unspecified) | 0.0
COc1ccc(-n2nnnc2SCC(=O)c2ccc3c(c2)OCCO3)c(OC)c1 | i
O=C(COc1ccc(Cl)cc1)N1CCN(Cc2ccccc2)CC1 | 0.7
Cc1nnc(SCC(=O)NCc2ccccc2)n1-c1ccccc1 | 1.6
CCOC(=O)C1=c2s/c(=C\c3cccnc3)c(=O)n2C(N)=C(C(=O)OC)C1c1cccnc1 (stereo unspecified) | 2.1
CCN(CC)c1ccc(NC(=O)c2cncc(Br)c2)cc1 | 0.8
O=C(O)c1cc(-c2ccc(Cl)cc2)n[nH]1 | 0.1
O=C(NCCc1ccccc1)c1ccc(Cl)c([N+](=O)[O-])c1 | i

# Overlap with the part before: three compounds; new compounds follow.
SMILES,H5N1 CPE
CCN(CC)c1ccc(NC(=O)c2cncc(Br)c2)cc1,0.8
O=C(O)c1cc(-c2ccc(Cl)cc2)n[nH]1,0.1
O=C(NCCc1ccccc1)c1ccc(Cl)c([N+](=O)[O-])c1,i
Cc1cc2c(cc1C)CSC(c1ccc(O)cc1)SC2,i
CN1CCN(C(c2cccnc2)c2ccc3cccnc3c2O)CC1 (stereo unspecified),i
CCOc1cc(C2CC(=O)NC(SCC)=C2C#N)ccc1O (stereo unspecified),4.2
O=C(O)CCn1nnc(-c2cccs2)n1,i
CC(=Nc1ccccc1)C1=C(O)COC1=O,i
CCC(NC(=O)NCc1ccc2c(c1)OCO2)(C(F)(F)F)C(F)(F)F,2.3
CC(NS(C)(=O)=O)C(c1cccs1)N1CCN(C)CC1 (stereo unspecified),i
Cc1ccn2cc(-c3cnoc3C)nc2c1,0.2
CCc1ccc(NC(=O)CS(=O)CC(=O)NCCCc2ccccc2)cc1 (stereo unspecified),0.4
CCn1c(COc2ccccc2C)nnc1SCC(=O)N1CCN(c2ccccc2)CC1,0.8
CCOc1c(Cl)cc(CNC(C)(C)CC(C)(C)C)cc1OC,i
O=c1c2ccccc2nc(SCc2nnc(-c3ccccc3Br)o2)n1-c1ccccc1,0.0
CCN(CC#CCC1(O)c2ccccc2-c2ccccc21)CCO,i
CCOc1ccc(-c2cc(CCCC(=O)NCCc3ccccc3)no2)cc1,0.3
O=C(Cc1ccccc1)N[C@@H](Cc1ccccc1)c1nc2ccccc2[nH]1,i
Oc1c(Cl)cc(Cl)cc1CN1CCN(Cc2ccccc2)CC1,0.4
CCOC(=O)C1CCCN(Cc2ccccc2C)C1 (stereo unspecified),0.3
O=C(CN(C1CCCCC1)S(=O)(=O)c1ccccc1)NCc1cccnc1,i
CC1(C)C2CC=C(/C=N/n3cnnc3)C1C2 (stereo unspecified),1.4
O=S(=O)(c1ccc(-c2ccccc2)cc1)N1CCOCC1,1.4
CC(C)CC(=O)N1CCN(Cc2ccc3c(c2)OCO3)CC1,0.1
CCOC(=O)c1sc(-c2ccc(OC)cc2)cc1N,0.1
CC(=O)N1CCc2cc(S(=O)(=O)NCCC(=O)NC3CCN(Cc4ccccc4)CC3)ccc21,0.4
COc1ccc(CNC(=O)c2ccc(CN3CCOCC3)cc2)cc1,1.6
O=C(c1ccccc1)c1cccc(NC(=O)C2CC2)c1,i
Cc1ccc(S(=O)(=O)N2CCN(C(=O)CSc3nc4ccccc4c(=O)[nH]3)CC2)cc1,0.2
CCNc1[nH]c(=O)n(C)c(=O)c1N=O,i
CN(C)CCN1C(=O)C(=O)/C(=C(/O)c2ccccc2)C1c1ccccc1F (stereo unspecified),i
CCN(CC)C(=O)Cn1c(=O)n(C)c2ccccc21,0.5
CCOC(=O)c1sc2cc([N+](=O)[O-])cc(SCC(C)C)c2c1N,0.3
COc1c(S(=O)(=O)NCCN2CCOCC2)ccc(Cl)c1Cl,0.1
Nc1nc2ccc(Oc3ccccc3)cc2s1,0.7
CCn1c(SCC(=O)Nc2nnc(C)s2)nnc1-c1ccco1,i
Cc1oc2c(c1C(=O)NCc1cc(C(=O)O)co1)CCCC2,i
O=CNCCCc1nc2ccccc2n1Cc1cccc2ccccc12,i
Clc1cccc(Cl)c1Cn1c(-c2cccnc2Cl)nc2ccccc21,i
c1ccc(-c2nc(C3CCCCC3)no2)cc1,0.1
CCCCCC(=O)Nc1cc2[nH]c(=O)cc(COC)c2cc1C,0.9
C=CCOC(=O)C1C(=O)CC(C)(O)C(C(=O)OCC=C)C1c1ccc(OCC)cc1 (stereo unspecified),0.9
COCCCNC(=O)C1CC(=O)N(Cc2ccc(OC)cc2)C1 (stereo unspecified),0.4
Cc1cnc(C(=O)OCC(=O)NC2CCCCC2)cn1,i
CCCCOCP(=O)(CC)COCCCC,i
Cn1c(C(=O)N2CCCc3ccccc32)cc2sccc21,i
CC(=O)NC(C)C(=O)OCC(=O)c1ccc(Cl)s1 (stereo unspecified),i
C=CCc1ccc(OCCOCCOc2ccccc2[N+](=O)[O-])c(OC)c1,i

# Grouped by structure: the entries above with a CF3 group.
SMILES,H5N1 CPE
Cc1nn(CCc2nc(-c3ccco3)cs2)c2[nH]c(=O)cc(C(F)(F)F)c12,i
O=C(CS(=O)c1ccc(C(F)(F)F)cc1[N+](=O)[O-])Oc1ccccc1 (stereo unspecified),i
CCC(NC(=O)NCc1ccc2c(c1)OCO2)(C(F)(F)F)C(F)(F)F,2.3

# (next part)
SMILES,H5N1 CPE
CCOC(=O)N1CCC(NS(=O)(=O)c2ccc3c(c2)CCN3C(C)=O)CC1,i
CCN(C(=O)C1CCCCC1)c1nnc(-c2cccnc2)s1,i
CCOC(=O)CCn1c2nc(C)cc(C)c2c(=O)n1-c1ccccc1,i
CCOC(=O)N1CCN(C(=O)CCn2nc(-c3ccccc3)ccc2=O)CC1,1.5
Cc1nc(N2C(=O)C(=O)/C(=C(/O)c3ccccc3)C2c2ccco2)sc1C (stereo unspecified),i
CCOC(=O)C(C)Oc1ccc(C2NC(=O)NC(C)=C2C(C)=O)cc1Br (stereo unspecified),0.1
O=C(c1ccc(C#CC2(O)CCCCC2)cc1)N1CCN(C(c2ccccc2)c2ccccc2)CC1,3.2
Cc1c(NC(=O)c2cc(-c3ccc(Cl)s3)nc3ccccc23)c(=O)n(-c2ccccc2)n1C,i
CC(=O)c1coc2ccc(OCC(=O)O)cc12,i
O=C(c1cnccn1)N1CCN(C/C=C/c2ccccc2)CC1,i
O=C(c1ccc(S(=O)(=O)N2CCOCC2)cc1)N(c1ccc(F)cc1)C1C=CS(=O)(=O)C1 (stereo unspecified),0.2
O=C1CC(N2CCCc3ccccc32)C(=O)N1c1ccccc1 (stereo unspecified),i
O=C(c1cc(=O)c2ccccc2o1)N1CCCc2ccccc21,i
COc1ccc(CCNC(=O)c2cnc3scc(C)n3c2=O)cc1OC,2.7
COc1ccc(NC(=O)C(=O)NCc2ccncc2)c(OC)c1,0.5
CCCc1cc(C(=O)Nc2sc3c(c2C#N)CCC3)no1,i
Cn1c(SCCOc2ccc(Cl)cc2)nnc1-c1ccncc1,2.5
